# RN4220 kill: kills Staphylococcus aureus RN4220 | AID 1259311 | 330,000 tested, 0.33% active | inhibition, % (test concentration not listed) | S. aureus RN4220 growth, OD600, 16 h;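 active = z-score of -3 or lower and OD600 up to 0.18 on both plates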;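 also: plate controls were untreated cells for no effect and reference antibiotic for full effect; stock transfer was 100 nL into about 80 µL; one replicate is shown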
# Mtb hypoxia rep: inhibitors of hypoxia-regulated fluorescent reporter in Mycobacterium tuberculosis. M. tuberculosis hypoxia-regulated fluorescent reporter, fluorescence. fluorescence inhibition, % (concentration not given with the values). 300,000 tested, 0.1% active;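 active = 35 to 45% if threefold the growth effect, above 45% if 1.5-fold the growth effect; inactive = the rest, general growth blockers included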;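 also: wells of about 50 µL received 100 nL stock; 0% = vehicle wells and 100% = reference inhibitor wells; whole bacteria with a GFP reporter of the hypoxia response; strong numbers were not always called active; many hits fall short of the cut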
# PrP UTR inh: inhibition of PrP 5' UTR reporter expression | cell-based PrP 5' UTR mRNA reporter, plate reader | inhibition, % (no concentration beside the values) | 340,000 tested, 0.35% active | AID 488862;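 active = every replicate at 50% or more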;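 also: 0 = median of the neutral control wells; tested in H4 reporter cells; numbers are from one replicate; inactives centre near -14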
# ugtP null kill: compounds lethal to S. aureus RN4220 ugtP deletion mutant | OD600 growth, 16 h; some inactives read as strong as hits | growth inhibition, % (concentration not given with the values) | AID 1259309 | 330,000 tested, 0.54% active;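 active = z-score under -3 and OD600 up to 0.15 on both plates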;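 also: plate controls were untreated wells for no effect and antibiotic for full effect; wells of about 80 µL received 100 nL stock; the first replicate is given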
# Bead autofluor: flagged as autofluorescent in microsphere protease counterscreen | compound autofluorescence counterscreen, microsphere flow cytometry; hits give high values | fluorescence intensity (test concentration not listed) | 360,000 tested, 3.1% active | AID 624483;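 active = at least 3 SD above the mean of all compounds, about 16000 in these data; inconclusive = too few beads counted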;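 also: 100 nL of 1 mM stock went into each well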
# BJeLR viability: BJeLR cell viability loss; BJeLR (HRASV12) viability, CellTiter-Glo ATP luminescence, 48 h; reference of the scale not given here; inhibition, % (concentration not given with the values); 300,000 tested, 0.17% active;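 active = replicate mean above 50%; inconclusive = above 50% but judged a plate artefact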;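 also: 50 nL library stock added to about 25 µL; numbers are from one replicate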
# Mtb hypoxia rep growth: further read-out of Mtb hypoxia rep, marked with its call; growth inhibition, %; measured here: M. tuberculosis growth (absorbance);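 0% = vehicle and 100% = reference antibiotic; read after six days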
# * hit, by the source's call; ? = inconclusive; / = not tested or not shown. Compounds were not picked by outcome; any-hit rate near 4%.
SMILES,RN4220 kill,Mtb hypoxia rep,Mtb hypoxia rep growth,PrP UTR inh,ugtP null kill,Bead autofluor,BJeLR viability
COc1ccc(CCNCc2sccc2C)cc1,5.2,-1,10,7,3,3447,-3
COc1ccc2nc(SCC(=O)c3c(N)n(C4CC4)c(=O)[nH]c3=O)[nH]c2c1,3.2,17,20,-12,11,2868,/
COc1ccc(C(=O)N/C(=C/c2ccccc2F)C(=O)NCCN2CCOCC2)cc1OC,0.4,-6,-4,-8,-5,5626,9
O=C(NC(=S)Nc1ccc2c(c1)OCO2)c1ccc(Cl)cc1,5.0,9,5,-129,88*,2408,-8
COCCN=C1NN=C(c2ccc(NC(C)=O)cc2)CS1,-1.6,1,-7,-34,0,4949,1
Cc1ccc(NC(=O)C(NS(=O)(=O)c2cccc3nsnc23)C(C)C)nc1 (centres undefined),6.5,3,4,5,-3,5922,-13
CC[C@H](C)Cc1cn([C@@H](CCCN=C(NC(=O)OC(C)(C)C)NC(=O)OC(C)(C)C)C(=O)NCCCCCCCCCCC(=O)N2CCN(C(=O)OC(C)(C)C)CC2)nn1,/,/,/,-15,/,3598,-8
CCc1ccc2c(COC(=O)CNS(=O)(=O)c3ccc(NC(C)=O)cc3)cc(=O)oc2c1,1.4,-6,-5,-16,3,2488,6
CCCn1c(SCC(=O)Nc2nnc(C)s2)nnc1-c1ccoc1C,0.8,/,/,-4,-1,2826,-3
O=C1CNC(=O)N1Cc1ccc(Br)cc1,-4.0,/,/,/,-5,/,2
COc1ccc(Br)cc1CNC(C)c1ccccc1 (centres undefined),0.4,-6,-5,-17,0,2498,1
O=C(CNC(=O)Cc1ccccc1)NCc1cccs1,4.4,-1,-2,-27,10,3823,/
OC(CN(Cc1ccccc1)Cc1ccccc1)c1ccccc1 (centres undefined),6.5,21,11,-12,11,3989,/
O=C(c1ccc(CN2CCOCC2)cc1)N1CCC(Cc2ccccc2)CC1,10,9,15,-16,-2,3669,-2
CC1CCN(C(=O)c2ccc(NC(=O)c3cccs3)cc2)CC1,2.6,1,7,-38,-3,3478,-7
COc1ccc(-c2nn(-c3ccccc3)cc2C(=O)N2CCN(S(=O)(=O)c3ccccc3[N+](=O)[O-])CC2)cc1,-3.0,-6,3,-8,-3,3844,/
COc1ccc(N/N=C(\C#N)C(=O)NCCc2ccc(OC)c(OC)c2)cc1,/,/,/,-12,/,5392,0
COCc1nnc(NS(=O)(=O)c2ccc(F)cc2)s1,3.7,3,-9,-19,3,4168,-6
NS(=O)(=O)c1ccc(N/N=C/c2ccc[nH]2)c([N+](=O)[O-])c1,/,/,/,2,/,3927,-3
CC(NC(=O)Nc1ccc(Br)cc1)C(C)(C)C (centres undefined),1.7,/,/,-5,-2,2490,-2
O=C(Cn1cc(C(=O)C(F)(F)F)c2ccccc21)NCc1ccco1,-4.6,3,6,-17,-8,3349,0
COc1ccc(NC(=O)CSc2nnnn2C2CCCCC2)c(OC)c1,3.3,7,4,-15,14,2979,-9
OCCN(CCCn1c(-c2ccncc2)nc2ccccc21)c1nc(CN2CCCCC2)cs1,1.9,3,7,-16,7,4043,1
CN(C(=O)COC(=O)c1ccc(Br)c([N+](=O)[O-])c1)c1c(N)n(Cc2ccccc2)c(=O)[nH]c1=O,-2.5,-7,7,-12,-6,6419,5
Cc1c(Cl)c(C(F)(F)F)nn1CC(=O)N1CCSCC1,2.3,2,8,-2,-2,2365,-7
# Other compounds follow:
SMILES,RN4220 kill,Mtb hypoxia rep,Mtb hypoxia rep growth,PrP UTR inh,ugtP null kill,Bead autofluor,BJeLR viability
COc1ccc(C)cc1S(=O)(=O)N(CC(=O)Nc1cccc([N+](=O)[O-])c1)c1ccc(C)cc1,3.5,-1,5,-16,-4,2388,-8
Cc1c(C(=O)OC(C)CCN(C)C)oc2ccccc12 (centres undefined),1.8,8,10,-25,2,9137,0
O=C(/C=C/c1ccc(OC(F)F)cc1)Nc1cccc(S(=O)(=O)N2CCOCC2)c1,-8.7,2,-1,-13,-20,6040,7
O=C(CCNC(=O)c1ccc([N+](=O)[O-])cc1)Nc1ccccc1N1CCCC1,2.0,-1,3,-23,3,5590,-1
c1ccc(CSc2nnc(NC3=NCCCCC3)s2)cc1,7.5,11,14,-50,-3,3496,-15
COc1ccc(C2NCc3ccccc3-n3cccc32)cc1 (centres undefined),18,8,3,-3,12,4529,4
Cc1ccc2[nH]c(=O)c(CN(Cc3nnnn3Cc3ccccc3)C3CCCC3)cc2c1,4.1,8,-2,-33,-16,5644,-13
CCN(CC(=O)NCc1ccc(Cl)cc1)C(=O)/C=C/c1ccc(C#N)cc1,-2.9,-10,-7,1,3,4727,4
Cc1ccc2c(c1)N(N=O)CCC2,5.8,-1,-1,-19,6,2086,23
Cc1ccc(OCC(=O)NN=Cc2cn(Cc3ccccc3)c3ccccc23)cc1,-4.2,0,-3,/,-6,/,/
N#CCCn1cc(/C=N/NC(=O)c2ccncc2)c(-c2ccccc2)n1,/,/,/,-28,/,10915,4
O=C(N/N=C/c1cc([N+](=O)[O-])cc([N+](=O)[O-])c1O)/C(=C\c1cccs1)NC(=O)c1ccccc1,/,/,/,-22,/,2048,1
CSCCCc1cn([C@@H](CO)C(=O)NCCCCCCCCCCC(=O)N2CCNCC2)nn1,/,/,/,-34,/,3431,-1
Cc1ccc(S(=O)(=O)N2CCC(n3nnc4cc(C)ccc43)CC2)cc1,5.4,-2,8,-15,-4,10360,1
CC(OC(=O)C1CC(=O)N(Cc2ccccc2)C1)C(=O)Nc1ccc(F)cc1Cl (centres undefined),2.9,8,9,-9,5,4732,-4
CCOC(=O)C(CO)(NC(C)=O)C(=O)OCC,-0.4,/,/,-21,1,2617,9
COCCCNC(=O)c1ccc(-c2csc(C)n2)cc1,1.0,-4,-1,-4,-6,3437,-8
COC(=O)c1ccc(OCCN2CCCCCC2)cc1,2.9,-1,-6,-13,3,2479,4
O=C(NNC(=O)c1ccc(Oc2cc(Cl)cc(Cl)c2)o1)c1ccccc1,6.2,-1,2,-7,32,3920,1
c1cn(CCCNC2=NCCCCC2)cn1,3.4,1,2,10,4,8361,1
NC(=O)CSc1oc(-c2cccs2)nc1S(=O)(=O)c1ccccc1,2.5,/,/,-23,-10,2822,2
O=C(CCCn1c(SCC(=O)NCC2CCCO2)nc2ccccc2c1=O)NCc1ccccc1 (centres undefined),4.8,9,8,-12,4,22190*,-4
O=C(CCc1nnc(CCCc2ccccc2)o1)NCCc1ccco1,2.5,1,5,-39,4,2605,0
COc1cc(/C=C/C(=O)c2c(O)n(CCc3ccccc3)c(=O)[nH]c2=O)ccc1O,13,17,15,-9,-6,2524,7
CCc1cc(C(=O)NCC(c2ccc(OC)cc2)N2CCOCC2)sc1C (centres undefined),3.7,2,0,-24,2,?,/
# More results:
SMILES,RN4220 kill,Mtb hypoxia rep,Mtb hypoxia rep growth,PrP UTR inh,ugtP null kill,Bead autofluor,BJeLR viability
CCc1c(C)nc(N2CCN(c3ccc(Cl)cc3)CC2)[nH]c1=O,-3.8,5,-5,-13,7,4000,7
CC(NC(=O)c1ccc(Cl)cc1)C(=O)N1CCCCC1 (centres undefined),/,/,/,-11,/,5582,-5
Cn1nnc2cc(C(=O)Nc3ccccc3)ccc21,7.3,3,6,-67,-2,4488,-4
COc1cc(/C=N/n2nnnc2N)ccc1OC(C)=O,/,/,/,-7,/,3960,11
CCOC(=O)c1c(C)n(-c2ccc(C)cc2)c2c(C(C(C)=O)C(=O)O)c(Br)c(O)c(O)c12 (centres undefined),11,/,/,-2,-11,2840,-7
CCCN1C2CCCC1CC(NC(=O)c1ccc(F)cc1)C2 (centres undefined),2.0,7,5,-23,4,9166,6
COCCNC(=O)CN(Cc1ccc(F)cc1)C(=O)CCC(=O)Nc1nccs1,-0.1,-3,3,-10,4,3955,-8
Cc1ccc2[nH]c(O)c(N=NC(=O)CCc3ccccc3)c2c1Br,-1.2,7,7,-9,-9,8058,-8
Cc1cc(C(=O)Nc2c(C)nn(Cc3ccccc3Cl)c2C)no1,3.9,3,2,-6,8,15962,8
CC(=O)N(CCCCl)C(C#N)c1ccccc1 (centres undefined),0.1,-2,1,-20,-11,2671,-10
COc1ccc(Cl)cc1C(=O)Nc1nnn(C)n1,1.6,6,5,-11,6,3231,9
CC1CN(S(=O)(=O)c2cccc(C(=O)Nc3ccc(S(=O)(=O)Nc4ncccn4)cc3)c2)CC(C)O1 (centres undefined),4.0,13,21,-23,9,4725,4
C/C(=N\N(C)c1ccccc1)c1c(O)[nH]c(=O)[nH]c1=O,3.4,12,5,-2,5,?,-2
O=S(=O)(N1CCCCC1)N1CCCN(S(=O)(=O)N2CCCCC2)CC1,5.3,/,/,-12,2,3410,5
COc1ccc(-c2csc(NC(=O)c3c(C)noc3C)n2)cc1F,2.2,4,0,-16,-1,5798,/
COc1cccc(C(=O)Cn2c(=O)n(CC3CCCO3)c(=O)c3ccccc32)c1 (centres undefined),2.0,/,/,-16,-12,4279,0
CCOc1ccccc1C(=O)NCC(=O)OCC(=O)N1CCCC1,4.9,9,12,-26,5,3326,/
COC(=O)C1=C(c2ccc(C(C)=O)cc2)C[C@@H]2CC[C@H]1N2C(=O)N1CCCCC1,6.1,-7,15,-15,0,3466,/
COc1ccc(-c2cc(C(F)(F)F)n3ncc(C(=O)Nc4c(C)n(C)n(-c5ccccc5)c4=O)c3n2)cc1,1.8,12,-3,/,3,/,5
CCn1c(O)c(C=Nc2ccc(N3CCOCC3)cc2)c(=O)n(CC)c1=S,4.9,7,10,2,4,9832,-8
COc1ccc(C(=O)/C=C/Nc2ccc(S(=O)(=O)Nc3nc(C)cc(C)n3)cc2)cc1OC,/,/,/,4,/,2534,2
O=C(Nc1ccc(F)cc1)c1cccc2c1C(=O)N(Cc1ccccn1)C2,-3.8,/,/,5,20,2311,/
NNC(=O)C1SCCN1S(=O)(=O)c1ccc(Cl)cc1 (centres undefined),-0.6,2,-5,-28,7,4386,8
Cc1cccc(C)c1NC(=O)c1nc(S(=O)(=O)Cc2ccccc2)ncc1Cl,/,/,/,-29,/,5243,27
Cc1cc(F)ccc1NC(=O)Nc1ccc2c(c1)OCO2,2.2,3,9,-34,-1,5721,4

# Continued, starting with the last 5 of the part before.
SMILES,RN4220 kill,Mtb hypoxia rep,Mtb hypoxia rep growth,PrP UTR inh,ugtP null kill,Bead autofluor,BJeLR viability
COc1ccc(C(=O)/C=C/Nc2ccc(S(=O)(=O)Nc3nc(C)cc(C)n3)cc2)cc1OC,/,/,/,4,/,2534,2
O=C(Nc1ccc(F)cc1)c1cccc2c1C(=O)N(Cc1ccccn1)C2,-3.8,/,/,5,20,2311,/
NNC(=O)C1SCCN1S(=O)(=O)c1ccc(Cl)cc1 (centres undefined),-0.6,2,-5,-28,7,4386,8
Cc1cccc(C)c1NC(=O)c1nc(S(=O)(=O)Cc2ccccc2)ncc1Cl,/,/,/,-29,/,5243,27
Cc1cc(F)ccc1NC(=O)Nc1ccc2c(c1)OCO2,2.2,3,9,-34,-1,5721,4
CCc1cccc(OCC(=O)Nc2cc(Cl)ccc2-n2cncn2)c1,7.9,5,0,-5,4,2923,/
Cc1cc(NC(=O)CCC(=O)N(CC(=O)NC2CCCC2)c2cccc(C)c2C)no1,0.9,/,/,-5,-1,4532,6
CN=CC1=C(O)C(C(=O)OC)C(C)(C)CC1=O (centres undefined),4.6,7,0,-34,5,5419,2
CC1CCCC/C1=N\Nc1ccc(S(N)(=O)=O)cc1[N+](=O)[O-] (centres undefined),/,/,/,-19,/,9189,-7
CC(C)n1cc(C(N)=S)c(=O)n(Cc2ccccc2)c1=O,1.7,2,1,-19,9,3314,9
CC1=NN(/C(=N\c2nnc(C)s2)Nc2ccccc2)[C@H](c2ccc(C)cc2)S1,/,/,/,-5,/,3800,-3
c1ccc2sc(C3CCNCC3)nc2c1,-3.0,12,-4,-19,-4,3656,2
CN(Cc1ccc(F)cc1)C(=O)C(Cc1ccccc1)NC(=O)c1ccccc1 (centres undefined),0.2,-3,0,-27,5,5252,15
Cc1ccccc1C(=O)Oc1cccc2c(O)cccc12,11,12,1,-15,18,4687,4
Cc1ccc(NC(=O)c2cc(-c3ccc4c(c3)OCO4)on2)cc1,2.0,18,4,-39,2,6225,7
Cn1c(=O)c2c(nc(NN=Cc3ccncc3)n2Cc2ccccc2)n(C)c1=O,3.0,5,2,/,7,/,/
CCN(C(=O)c1c(-c2ccccc2)noc1C)c1ccccc1,15,21,7,-27,-9,10642,-5
